Compound activity deposited in PubChem by several laboratories.
Sa RN4220 lethal: growth inhibition of S. aureus RN4220, primary screen, OD600. 16 h. inhibition, % (no concentration beside the values). 330,000 compounds, 0.33% hits;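 active = z-score of -3 or lower and OD600 up to 0.18 on both plates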;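 note: plate controls were untreated cells for no effect and reference antibiotic for full effect; stock transfer was 100 nL into about 80 µL; one replicate is shown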
Sa ugtP lethal: growth inhibition of ugtP-null S. aureus, primary screen, RN4220 ugtP deletion, OD600; 16 h; some inactives read as strong as hits; growth inhibition, % (test concentration not listed); 330,000 compounds, 0.54% hits;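 active = z-score under -3 and OD600 up to 0.15 on both plates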;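 note: plate controls were untreated wells for no effect and antibiotic for full effect; wells of about 80 µL received 100 nL stock; the first replicate is given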
PrP UTR inh: inhibition of PrP 5' UTR reporter expression. cell-based PrP 5' UTR mRNA reporter, plate reader. inhibition, % (no concentration beside the values). 340,000 compounds, 0.35% hits. AID 488862, 2010;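 active = every replicate at 50% or more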;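 note: 0 = median of the neutral control wells; tested in H4 reporter cells; numbers are from one replicate; inactives centre near -14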
Mtb hypoxia rep: PubChem AID 1159583. M. tuberculosis hypoxia-regulated fluorescent reporter, fluorescence. fluorescence inhibition, % (no concentration beside the values). 300,000 compounds, 0.1% hits;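 active = 35 to 45% if threefold the growth effect, above 45% if 1.5-fold the growth effect; inactive = the rest, general growth blockers included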;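 note: wells of about 50 µL received 100 nL stock; 0% = vehicle wells and 100% = reference inhibitor wells; whole bacteria with a GFP reporter of the hypoxia response; strong numbers were not always called active; many hits fall short of the cut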
Autofluor counter: compound fluorescence in toxin protease inhibitor counterscreen | compound autofluorescence counterscreen, microsphere flow cytometry; stronger effect = higher value | fluorescence intensity (concentration not given with the values) | 360,000 compounds, 3.1% hits | AID 624483;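 active = at least 3 SD above the mean of all compounds, about 16000 in these data; inconclusive = too few beads counted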;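 note: 100 nL of 1 mM stock went into each well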
BJeLR lethal: MLPCN primary cell-based screen for lethality selective to Ras in HRASV12 cells; BJeLR (HRASV12) viability, CellTiter-Glo ATP luminescence, 48 h; reference of the scale not given here; inhibition, % (test concentration not listed); 300,000 compounds, 0.17% hits; AID 1554, 2009;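 active = replicate mean above 50%; inconclusive = above 50% but judged a plate artefact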;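 note: 50 nL library stock added to about 25 µL; numbers are from one replicate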
Mtb hypoxia rep growth: recorded beside Mtb hypoxia rep, whose call it bears; growth inhibition, %; measured here: M. tuberculosis growth (absorbance);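 0% = vehicle and 100% = reference antibiotic; read after six days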
* = called active by the depositor; ? = inconclusive; / = not tested or not shown. The order is random; overall some 4% were active at least once.

entry	structure	Mtb hypoxia rep	Autofluor counter	Mtb hypoxia rep growth	PrP UTR inh	Sa ugtP lethal	Sa RN4220 lethal	BJeLR lethal
1	C/C(=N\NC(=O)Cc1c(Cl)cccc1Cl)c1cccnc1	/	5398	/	-14	/	/	-4
2	OCC(Cc1ccc2c(c1)OCO2)C(CO)Cc1ccc2c(c1)OCO2 (stereo not drawn)	/	5818	/	-27	15	8.2	-6
3	COc1ccc(NC(=O)c2oc3ccccc3c2C)c(OC)c1	-12	22634*	15	-36	-6	0.7	1
4	N#Cc1cnc(Oc2ccc(Cl)cc2)nc1N	-1	3729	-5	-14	7	2.8	7
5	Cc1nc2ccc(S(=O)(=O)N(C)CC(=O)Nc3ccccc3F)cc2s1	-9	3998	-3	5	3	8.4	4
6	O=S(=O)(NCc1ccc(F)cc1)c1ccc(Br)cc1Br	15	4019	15	-6	13	7.0	/
7	Cc1ccc(S(=O)(=O)NCC(=O)NNC(=O)c2ccc(Br)cc2)cc1C	14	3433	9	-23	4	6.8	/
8	CCOc1ccc(CCNC(=O)C2CC(=O)N(CCc3ccc(OC)c(OC)c3)C2)cc1OCC (stereo not drawn)	12	4519	1	-4	7	2.0	3
9	COc1ccc(N2CCOCC2)c(NC(=O)c2ccc(Br)o2)c1	4	5160	7	-9	-2	9.8	3
10	CCc1cc(C(=O)O)c(NC(=O)/C=C/c2ccc(OC)c(OC)c2)s1	1	4100	10	0	1	11	-3
11	CCCCn1c(N)c(N(CC(C)C)C(=O)CSc2ccc([N+](=O)[O-])cc2)c(=O)[nH]c1=O	14	4436	2	-10	1	2.2	-5
12	Cc1ccc(Sc2nc(C)c([N+](=O)[O-])c(C)c2C#N)cc1	4	3625	-2	/	19	11	-2
13	CCOc1ccc(NC(=O)CN(C)C(=O)c2ccncc2)cc1OCC	4	5154	5	-14	0	-2.5	3
14	C=CC(C)(O)CCCC(C)CCCC(C)CCCC(C)C (stereo not drawn)	6	5703	6	-18	20	1.0	/
15	O=C(NC1CCCCC1)Oc1cc2oc(=O)sc2cc1Br	13	4087	10	-7	14	-2.4	1
16	NC(=O)c1ccsc1NC(=O)C1CCCCC1	8	5972	11	-7	6	3.8	-7
17	CCCOc1ccccc1OCC(=O)N1CCN(S(=O)(=O)c2ccc(Cl)cc2)CC1	32*	8630	71*	-17	4	3.9	/
18	Cc1ccc(NC(=O)c2cccc(NC(=O)CC3SC(N4CCCCC4)=NC3=O)c2)nc1 (stereo not drawn)	14	5218	6	-3	2	5.5	3
19	O=C(CSc1ncnc2ccccc12)NCC(=O)c1ccccc1	7	3894	5	-11	6	0.7	-17
20	Cc1ccccc1NC(=S)N1CCCCCC1	-8	5173	0	-25	2	2.9	/
21	CCCCCCn1c(CN2CCN(CCO)CC2)nc2c1c(=O)n(C)c(=O)n2C	8	7631	9	-10	2	-10	-1
22	O=C(CNC(=O)C1COc2ccccc2O1)NN=Cc1cccc(O)c1 (stereo not drawn)	11	/	7	/	2	6.2	/
23	COC(=O)c1cccc(NC(=O)CN2CCC(NC(=O)c3cc(OC)c(OC)c(OC)c3)CC2)c1	17	6109	8	-10	2	0.6	1
24	O=C(Cn1nc(C(F)(F)F)c2c1CCCC2)NC1CCCC1	8	23402*	1	-2	-2	2.9	-3
25	Cc1ccc(CS(=O)(=O)CCC(=O)NCCCN2CCCC2)cc1	3	7359	-5	-36	5	2.4	-3
26	CCOC(=O)c1ccc(NC(=O)c2cn(CCC#N)nc2-c2ccc3c(c2)OCCO3)cc1	-1	2155	5	-13	3	1.0	-10
27	COc1cccc(NC(=O)c2ccc(S(=O)(=O)NCc3cccnc3)cc2)c1	2	3472	-3	-20	8	1.1	-2
28	CCN(c1ccccc1)S(=O)(=O)c1cccc(C(=O)NCc2ccncc2)c1	7	5924	16	-8	-2	3.7	-4
29	CC(C)C(C)NC(=O)COn1nnc2ccc(S(=O)(=O)N3CCOCC3)cc21 (stereo not drawn)	-1	?	0	/	1	0.8	/
30	O=C(NCc1cccnc1)c1ccc(Cl)cc1[N+](=O)[O-]	-2	3885	9	-16	-9	-1.2	-5
31	CCN1C(=O)C2C(c3ccc(C)cc3)N3C(=O)N(c4cccc(Cl)c4)C(=O)[C@@]3(C)C2C1=O (stereo partly drawn)	14	/	7	/	1	3.8	/
32	CC12COC3(C(=O)Nc4ccccc4F)CC1CCC32C (stereo not drawn)	-7	3295	5	-54	3	9.2	4
33	COc1ccc(NC(=O)C2CSC3c4ccccc4C(=O)N23)cc1 (stereo not drawn)	4	3301	3	-12	10	2.1	2
34	CCCOc1ccc(NC(=O)CC2C(=O)N(C)C(=S)N2Cc2cccs2)cc1 (stereo not drawn)	/	3106	/	-17	-2	8.1	7
35	O=C1CC(NS(=O)(=O)c2cccs2)CN1c1ccccc1 (stereo not drawn)	-3	5668	-1	-9	3	4.0	-1
36	COc1ccc(C(=O)NNC(=S)NC(=O)c2cccnc2)cc1	-15	4652	2	-12	14	1.7	-9
37	O=C(CSc1cnc2ccccc2n1)c1ccc(F)cc1	1	2726	4	-67	11	2.3	1
38	COc1ccc(C2C3=C(CC(C)(C)CC3=O)Oc3ncn4nc(-c5ccccc5)nc4c32)cc1 (stereo not drawn)	-5	/	-8	8	4	0.9	/
39	O=C(COC(=O)/C=C/c1ccc([N+](=O)[O-])cc1)NC1CCCCC1	-8	4176	-5	-7	-1	-3.4	/
40	C=C1CCN(C(C(=O)NCc2ccc(Cl)c(Cl)c2)C(C)C)S(=O)(=O)c2ccccc21 (stereo not drawn)	-6	/	3	/	6	11	/
41	CC(C)c1c(C(=O)N/N=C/c2ccc3c(c2)OCO3)nnn1-c1nonc1N	/	6042	/	-11	/	/	10
42	COc1ccc(C(=O)COC(=O)[C@H](C)Nc2ccc(C(F)(F)F)cc2[N+](=O)[O-])c(OC)c1	/	2835	/	-9	5	7.0	0
43	CCc1c(C(=O)Nc2cc(C(=O)OC)ccc2C)csc1C	7	5696	10	-16	2	11	1
44	COc1cccc(C2=NOC(C(=O)Nc3cc(C)nn3-c3ccccc3)C2)c1OC (stereo not drawn)	5	6049	8	-27	2	-9.0	-7
45	Cc1ccnc(NS(=O)(=O)c2ccc(NC(=O)Cc3ccc(Br)cc3)cc2)n1	5	3835	1	-16	5	2.3	-6
46	S=C(NCc1ccco1)NC1CCCc2ccccc21 (stereo not drawn)	3	3848	3	-14	11	-0.8	5
47	COc1ccc(CCn2c(=N)c(C(=O)NC3CCCCC3)cc3c(=O)n4ccccc4nc32)cc1	/	5987	/	-16	/	/	1
48	C=CCn1c(=O)c2ccccc2n2c(SCC(=O)c3ccccc3)nnc12	2	4218	6	-10	-6	5.1	2
49	COc1ccc([C@@H]2[C@@H]3C(=O)N(C(C)(C)C)C(=O)[C@@H]3[C@]3(Cc4ccccc4)C(=O)N(c4ccc(OC)cc4)C(=O)N23)cc1	/	3015	/	-6	/	/	8
50	CC(=O)Nc1ccc(S(=O)(=O)N2CCN(c3cc(C)nc4ncnn34)CC2)cc1	10	4410	3	-6	5	7.9	10
51	COc1ccc(C(=O)NCC2(N3CCCCC3)CCCCC2)cc1S(=O)(=O)N(C)C	-11	5290	0	-18	15	3.0	-7
52	CCCC(c1nnnn1Cc1ccc(OC)cc1)N1CCN(c2ccccc2)CC1 (stereo not drawn)	/	4594	/	-1	0	-3.5	13
53	CCOC(=O)c1nc[nH]c1C	13	10909	14	/	1	0.7	-7
54	COc1ccc(C(c2c(O)cc(C)oc2=O)c2c(O)cc(C)oc2=O)cc1	3	9841	4	6	2	2.0	11
55	O=C(Nc1nnc(SCC(=O)N2CCOCC2)s1)c1ccccc1Cl	12	10202	7	-11	3	-1.5	6
56	CCC(C)C1C(C#N)=C(N)OC2=C1C(=O)CC(C)(C)C2 (stereo not drawn)	4	5655	2	2	3	6.4	0
57	COc1ccc(CC2(CO)CCN(Cc3cnn(-c4ccccc4)c3)CC2)cc1	-5	4743	2	-24	4	1.1	10
58	O=C(CCNS(=O)(=O)c1ccc(Cl)cc1)N1CCCCCC1	7	5659	11	-27	1	0.8	7
59	C=CCN=C1CC(C)(C)CC(=O)/C1=C(\O)c1ccccc1	-14	?	-5	-20	7	2.8	-3
60	CC(C)(C)C1COC(=O)C(NC(=O)OCC2c3ccccc3-c3ccccc32)CC=CCC(CC(=O)N(CCO)Cc2ccccc2)C(=O)N1 (stereo not drawn)	2	/	8	/	-2	2.3	/

Carrying on:
entry	structure	Mtb hypoxia rep	Autofluor counter	Mtb hypoxia rep growth	PrP UTR inh	Sa ugtP lethal	Sa RN4220 lethal	BJeLR lethal
61	Cc1cccc(NS(=O)(=O)c2ccc3c(c2)NC(=O)CO3)c1C	5	4125	-3	5	-1	27	13
62	CC(C)c1ccc(C(=O)CSc2ncn[nH]2)cc1	19	10223	8	-38	-3	7.4	-2
63	Cc1nnc(SCc2cccc([N+](=O)[O-])c2)o1	9	3488	14	-3	-4	1.4	4
64	COc1ccc(Cc2noc(CN(C)Cc3cccc(-n4cccn4)c3)n2)cc1OC	-11	2458	3	2	2	4.7	4
65	Cc1ccc(S(=O)(=O)N(CC(=O)c2ccc(Cl)cc2)C(=O)N2CCN(C)CC2)cc1	2	5496	5	-20	5	3.8	-7
66	CN(C(=O)COC(=O)COc1ccc(N(C)S(=O)(=O)c2ccc(Cl)cc2)cc1)c1ccccc1	5	3814	7	-30	7	5.8	/
67	COc1ccc(CNC(=O)CC2C(=O)N(C3CCCCC3)CC2Cc2ccccc2)cc1 (stereo not drawn)	1	/	12	/	-1	-0.7	/
68	COc1cc(-c2cc(C(=O)Nc3ccc(N4CCOCC4)cc3)c3ccccc3n2)cc(OC)c1OC	-7	3786	-10	-1	-4	-1.4	5
69	CCC(C)(C)C1CCc2[nH]nc(C(=O)NCc3ccc(Cl)cc3)c2C1 (stereo not drawn)	6	3540	12	-19	-2	1.9	/
70	CCOc1ccc(CN2CCN(C3CCSCC3)CC2CCO)cc1 (stereo not drawn)	10	4632	5	-31	3	4.9	2
71	COCCNCCCCOc1ccc(C)cc1[N+](=O)[O-]	6	7793	0	-10	1	6.7	8
72	COc1ccccc1Nc1nc(C2(C)CCC(=O)O2)cs1 (stereo not drawn)	11	9454	4	-56	10	7.5	-7
73	COC(=O)[C@]1(Cc2ccccc2)N[C@H](CN(C)C(=O)c2ccc(C)cc2)[C@@H]2C(=O)N(Cc3ccccc3)C(=O)[C@@H]21	0	3914	0	-20	3	0.5	/
74	c1ccc(Oc2nnc(-c3cccs3)c3ccccc23)cc1	-2	2108	9	-12	6	-0.6	-2
75	CC(=O)n1cc([C@@H]2C=C(C(=O)N3CCN(C)CC3)O[C@H](OCc3ccc(CO)cc3)C2)c2ccccc21	/	3490	/	-12	/	/	-2
76	O=C(NC1CCCCC1)C(c1ccncc1)N(Cc1ccc2c(c1)OCO2)C(=O)C(F)(F)F (stereo not drawn)	9	3424	5	-24	10	11	-2
77	CCOc1ccc(-n2nnnc2SCC(=O)NC2CCCC2)cc1	24	5236	23	3	-9	4.4	5
78	CC(C)N1CCc2c(sc(NC(=O)Cc3ccccc3)c2C#N)C1	8	4768	5	-5	9	-4.5	-1
79	CN1CC2C3C(=O)N(C)C(=O)C3[C@](C)(C1=O)N2C(=O)c1ccc(C(C)(C)C)cc1 (stereo partly drawn)	13	/	5	/	6	6.1	/
80	Cc1ocnc1C(=O)Nc1ccc(Cl)cc1	10	20071*	6	-60	-3	2.4	2
81	CCOc1ccc(NC(=O)CSc2nc3c(c(=O)n2C)SC(C)C3)cc1 (stereo not drawn)	5	5368	9	-2	9	0.7	/
82	COCCCNC(=O)c1c(N)n(-c2ccc(S(N)(=O)=O)cc2)c2nc3ccccc3nc12	/	7532	/	-7	/	/	14

Some entries already given, limited to Mtb hypoxia rep, PrP UTR inh and Sa ugtP lethal.
| No. | Molecule | Mtb hypoxia rep | PrP UTR inh | Sa ugtP lethal |
| --- | --- | --- | --- | --- |
| 80 | Cc1ocnc1C(=O)Nc1ccc(Cl)cc1 | 10 | -60 | -3 |
| 81 | CCOc1ccc(NC(=O)CSc2nc3c(c(=O)n2C)SC(C)C3)cc1 (stereo not drawn) | 5 | -2 | 9 |
| 82 | COCCCNC(=O)c1c(N)n(-c2ccc(S(N)(=O)=O)cc2)c2nc3ccccc3nc12 | / | -7 | / |
